High-throughput results as filed in PubChem.
Cruzain inh Det – qHTS Assay for Promiscuous and Specific Inhibitors of Cruzain (with detergent); Cruzipain (Trypanosoma cruzi), P25779; purified cruzain, Z-FR-AMC fluorescence, 0.01% Triton; Potency, µM, inactives show max response, negative = inhibition, actives largely listed as inhibitors; 200,000 tested, 0.43% active; AID 1478, 2009; active means well fitted curve in the direction sought with a large enough effect; inconclusive means small, poorly fitted or top-dose-only effect, or another doubt; inactive means no such curve, though single readings can be large; an effect the other way counts as inactive or inconclusive;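 further: plate controls were neutral wells for no effect and buffer without enzyme for full effect; nearly all actives have a fitted effect of over 40% in size; top concentration of the series not given in the record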
Target sequence (P25779 123-467 limits assumed): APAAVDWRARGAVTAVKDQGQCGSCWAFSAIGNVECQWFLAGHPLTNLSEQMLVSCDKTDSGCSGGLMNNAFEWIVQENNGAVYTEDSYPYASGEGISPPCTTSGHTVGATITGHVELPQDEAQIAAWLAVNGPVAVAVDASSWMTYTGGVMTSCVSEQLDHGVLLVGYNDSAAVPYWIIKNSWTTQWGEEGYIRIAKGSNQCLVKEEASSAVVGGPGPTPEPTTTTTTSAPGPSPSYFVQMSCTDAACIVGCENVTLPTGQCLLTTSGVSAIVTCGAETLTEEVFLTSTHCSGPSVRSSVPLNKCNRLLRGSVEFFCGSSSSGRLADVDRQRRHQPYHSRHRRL
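Steps: dispense cruzain (1.5 nM final) in acetate buffer pH 5.5 with DTT and 0.01% Triton X-100; pin-transfer compounds; incubate 15 min RT; add Z-FR-AMC (2 uM final); read fluorescence every 30 s, using the 60 s intensity change.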
Lassa entry inh – qHTS for Inhibitors of binding or entry into cells for Lassa Virus; Lassa virus pseudotype entry inhibition, cell reporter; control for the full effect not named in the record; Potency, µM (doses to about 37.9 µM), inactives show top-dose activity change, negative = inhibition, usual class: inhibitors; 300,000 tested, 1.2% active; AID 540256, 2011; active means well fitted inhibition curve with a large enough effect; inconclusive means small, poorly fitted or top-dose-only effect, or effect the other way; inactive means flat fitted curve, though single readings scatter; tested in HEK293 cells; further: on the % scale 0 is the no-effect control and ±100 the full control effect; nearly all actives have a fitted effect of over 50% in size; luciferase read-out
NS1 function inh – qHTS Assay for Inhibitors of Influenza NS1 Protein Function; S. cerevisiae slowed by influenza A NS1, growth recovery by OD600; AID 2326, 2010; Potency, µM (titrated, usually from 46.1 µM), for the others: at the highest dose activity, positive = more growth; 270,000 tested, 0.4% active; further: actives are rising curves; nearly all actives have a fitted effect of over 50% in size
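Growth recovery, yeast-based: influenza A NS1 expressed in S. cerevisiae causes slow growth, and suppressors are detected by OD600. The parent strain without NS1 is used as positive control.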
SARS PLpro yeast – qHTS of Yeast-based Assay for SARS-CoV PLP | S. cerevisiae expressing SARS-CoV PLpro, growth rescue; control for the full effect not named in the record | Potency, µM (highest dose often 32.9 µM), without a hit: at the highest dose activity, positive = growth rescue | 330,000 tested, 0.19% active | AID 485353, 2010; further: 0% is about no effect; nearly all actives have a fitted effect of over 55% in size; growth read by luminescence after 48 h
2A StopGo – High Throughput Screening for Foot and Mouth Disease Virus Antivirals | human cells with a luciferase reporter of 2A StopGo recoding; control for the full effect not named in the record | Potency, µM (doses to about 57.9 µM), inactives show at the highest dose signal change, negative = less light | 410,000 tested, 1.2% active | AID 1159524, 2015; active = well fitted falling curve with a large enough effect; inconclusive = small, poorly fitted or top-dose-only effect; inactive = no such curve, though single readings can be large or run the other way; tested in HEK293T cells; further: on the % scale 0 is the no-effect control and ±100 the full control effect; nearly all actives have a fitted effect of over 45% in size; luciferase light after 4 h
MARV entry inh – qHTS for inhibitors of binding or entry into cells for Marburg Virus. Marburg virus pseudotyped entry inhibition, cell reporter; control for the full effect not named in the record; about a third of the inactives were read at about 46 µM. Potency, µM (titrated, usually from 37.8 µM), without a hit: at the highest dose activity change, negative = inhibition, most hits filed as inhibitors. 300,000 tested, 1.8% active; active = well fitted inhibition curve with a large enough effect; inconclusive = small, poorly fitted or top-dose-only effect, or effect the other way; inactive = flat fitted curve, though single readings scatter; tested in HEK293 cells; about a fifth of its hits are not listed in these tables; further: on the % scale 0 is the no-effect control and ±100 the full control effect; luciferase read-out
RE007 growth inh – qHTS Assay for Inhibitors of the HIV-1 protein Vpr; S. pombe RE007 Vpr strain, BacTiter-Glo ATP luminescence, 24 h; control for the full effect not named in the record; Potency, µM (highest dose often 92.2 µM), inactives show top-dose activity change, negative = less growth; 360,000 tested, 0.21% active; active = well fitted falling curve with a large enough effect; inconclusive = small, poorly fitted or top-dose-only effect; inactive = no such curve, though single readings can be large or run the other way;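 further: on the % scale 0 is the no-effect control and ±100 the full control effect; nearly all actives have a fitted effect of over 50% in size; the assay follows cell death caused by Vpr and the record does not say whether a fall means rescue or toxicity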
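Fission yeast strain RE007, carrying one chromosomally integrated HIV-1 vpr copy, was seeded at OD 0.01 in PMG+AL medium with 23 nL pinned compound. After 24 h at 30 °C and 99% humidity, viability was read by BacTiter-Glo luminescence.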
Cruzain inh noDet – qHTS Assay for Promiscuous and Specific Inhibitors of Cruzain (without detergent); purified cruzain, Z-FR-AMC fluorescence, no detergent; Cruzipain (Trypanosoma cruzi), P25779; Potency, µM, without a hit: max response, negative = inhibition, usual class: inhibitors; 200,000 tested, 2.3% active; active means well fitted curve in the direction sought with a large enough effect; inconclusive means small, poorly fitted or top-dose-only effect, or another doubt; inactive means no such curve, though single readings can be large; an effect the other way counts as inactive or inconclusive;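 further: plate controls were enzyme without inhibitor for no effect and buffer without enzyme for full effect; nearly all actives have a fitted effect of over 40% in size; top concentration of the series not given in the record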
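Purified cruzain at 1.5 nM, pre-incubated 15 min with compound at room temperature in 100 mM sodium acetate pH 5.5, 5 mM DTT, 0.00005% Triton X-100. Reaction started with 2 uM Z-FR-AMC; AMC fluorescence increase over 60 s gives rate.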
Numbers without * were called inactive; ? = inconclusive; . = not tested or not shown; & = joins results of further samples; [ ] = dose if it differs, or a comment. Unless noted, the call rests on the fitted dose curve; in most records, active means well fitted rising curve with a large enough effect; inconclusive means small, poorly fitted or top-dose-only effect; inactive means no such curve, though single readings can be large or run the other way. Potency means the concentration at half of the fitted maximal effect.

SMILES	Cruzain inh Det	Lassa entry inh	NS1 function inh	SARS PLpro yeast	2A StopGo	MARV entry inh	RE007 growth inh	Cruzain inh noDet
COc1cc(C(=O)NCC(=O)OCc2cc(=O)oc3c(C)c(C)ccc23)cc(OC)c1OC	.	-1%	.	-1%	-7%	-3%[46.1 µM]	14%	.
CC(C)(C)c1cc(-c2csc(Nc3ccccc3)[n+]2Cc2ccc(C(=O)O)cc2)cc(C(C)(C)C)c1O	.	-20%	15%	-4%	32µM*	11µM*	-6%	.
C=CCNC(=S)N/N=C/c1ccc(C)cc1C	.	?	.	0%	-19%	?	?	.
Cn1c(=O)n(C)c2cc([N+](=O)[O-])c(N3CCN(S(C)(=O)=O)CC3)cc21	-5.8%	?	7%	2%	-9%	3%	17%	-12%
CCOc1ccc2c(c1)C(c1ccccc1)=NNC(c1ccccc1)=N2	1.5%	20%	11µM*	-26%	13%	11%	-2%	?
CCn1cc(C(=O)O)c(=O)c2cc(F)c(N3CCN(C(=S)NC(=O)c4cccc(F)c4)CC3)cc21	.	-11%	-3%	2%	-7%	27%[46.1 µM]	10%	.
OCC(O)CNC(=S)NC1CCCCC1 (stereo not given)	.	.	4%	0%	-4%	10%[46.1 µM]	4%	.
OC(CN1CC=C(/C=C/c2ccc(Br)cc2)CC1)c1ccccc1 (stereo not given)	.	-33%[46.1 µM]	10%	-2%	48%[activator]	11µM*	-18%	.
O=S(=O)(c1ccccc1)N1CCc2ccccc2C1	.	.	-1%	0%	17%	.	-5%	.
N/C(=N\N=C\c1ccc(Br)o1)c1nonc1N	.	.	-7%	-2%	20%	.	-6%	.
CS(=O)(=O)N(CC(=O)NC1CCCCC1)c1cccc(F)c1	.	.	11%	-1%	10%	.	-2%	.
COC(=O)C1CSc2[nH]c(=O)sc2C1c1ccc(O)c(OC)c1 (stereo not given)	2.0%	-13%	11%	-4%	-4%	0%	-8%	-1%
C/C(=N/NC(=O)CSc1nc2ccccc2n1C)c1ccco1	.	.	2%	-1%	-22%	.	1%	.
O=C(CN1/C(=C(/O)c2ccccc2)C(=O)c2ccccc2S1(=O)=O)c1ccccc1	-8.7%	3%	-76%	-19%	-9%	-3%	-10%	?
COc1ccccc1-n1cc(C(=O)N2CCCC(CO)(Cc3ccccc3C)C2)cn1 (stereo not given)	.	-12%	2%	-1%	-20%	13%[46.1 µM]	-12%	.
CC(N)=NCc1cccc(CN)c1	-7.9%&-1.1%	.	-9%	.	6%[146 µM]	?	.	6%&8%
CCCNC(=S)N1CCC(NC(=O)c2ccc(OC)cc2)CC1	.	.	11%	-1%	3%	.	2%	.
O=C(Nc1ccc(S(=O)(=O)NCC2CCCO2)cc1)C1CC(=O)N(c2ccccc2)C1 (stereo not given)	.	-2%	8%	1%	21%	0%[46.1 µM]	-1%	.
COc1ccc(C2CC(=O)c3cc(-c4nc(-c5cccc([N+](=O)[O-])c5)cs4)c(=O)n(-c4ccc(C)c(C)c4)c3C2)cc1 (stereo not given)	-3.3%	-23%[46.1 µM]	.	.	-12%	14%[46.1 µM]	.	24%
CCCc1cc(=O)[nH]c(Nc2cc(Cl)ccc2OC)n1	-5.8%	14%[46.1 µM]	.	.	-7%	-1%[46.1 µM]	.	?
Cc1cccc(N(Cc2cc(=O)[nH]c3ccccc23)C(=O)CCl)c1	.	.	2%	1%	20µM*	.	-20%	.
Cc1ccc(C(=O)C2=C(O)C(=O)N(c3ncccn3)C2c2ccccc2F)o1 (stereo not given)	.	.	5%	3%	-5%	.	-9%	.
CN1C(=CC=C2C=C(I)C(=O)C(I)=C2)C(C)(C)c2ccccc21	.	12%	-2%	-2%	22µM*	-3%[46.1 µM]	-20%	.
COC(=O)Cc1nnc(Nc2cccc(C)c2)c2ccccc12	.	.	6%	0%	-17%	.	-4%	.
COc1ccc2c3c(ccc2c1)C(=O)/C(=C/O)CC3	.	?	.	.	?	-15%	?	.
CCCCCCCCCCCCN1C/C(=C\C(=O)OCC)c2cc(C(F)(F)F)ccc2S1(=O)=O	.	.	5%	-1%	-12%	.	2%	.
Cc1ccc(C)c2[nH]c(=O)c(C(c3nnnn3Cc3ccco3)N3CCc4ccccc4C3)cc12 (stereo not given)	-17%	?	?	7%	?	?	-11%	?
CCCS(=O)(=O)N1CCN(c2cc3c(cc2[N+](=O)[O-])n(C)c(=O)n3C)CC1	.	-7%	.	-2%	?	-8%[46.1 µM]	3%	.
COc1cc(OC)c2c(C)c(CC(=O)NCCc3ccccc3OC)c(=O)oc2c1	-3.2%	9%[46.1 µM]	.	.	4%	-10%[46.1 µM]	.	-4%
CSc1nnc(-c2sc3cc(C(F)(F)F)cnc3c2-c2ccccn2)n1C	1.8%	-14%	10%	2%	-21%	.	-11%	4%
COc1ccc(OC)c(-c2cc(C(=O)Nc3c(C)nn(Cc4ccc(C)cc4)c3C)no2)c1	-5.2%	4%[46.1 µM]	.	.	?	-19%[46.1 µM]	.	5%
O=C(C1CCN(S(=O)(=O)c2cccc3cccnc23)CC1)N1CCN(C2CCCC2)CC1	1.5%	-2%	2%	-12%	.	7%	.	-3%
O=C(NC1CCCCC1)N1CCCC(CNS(=O)(=O)Cc2ccccc2)C1 (stereo not given)	.	?	1%	-1%	-11%	13%[46.1 µM]	24%	.
O=c1c(Cc2ccccc2)c(O)ccn1C1CCCCCCC1	.	-2%	0%	-1%	-2%	-13%	3%	.
Cc1ccc(C(=O)Nc2cccc(C(=O)OCc3cc(=O)n4nc(C5CC5)sc4n3)c2)cc1	1.5%	5%[46.1 µM]	.	.	36%[activator]	.	.	-3%
C/C(=N\N1CCN(Cc2ccccc2Cl)CC1)c1ccc([N+](=O)[O-])cc1	.	?	6%	-2%	?	?	-2%	.
COc1ccc(Cl)cc1NC(=O)CN1c2ccccc2S(=O)(=O)c2ccccc21	-8.8%	-14%[46.1 µM]	.	.	-31%	.	.	20µM*
COc1ccc(-c2nc(CNS(=O)(=O)c3cccc(F)c3)cs2)cc1	-13%	-11%[46.1 µM]	.	.	-1%	-2%[46.1 µM]	.	-6%
Clc1ccc(SCCOCCN2CCOCC2)cc1	.	.	-11%	5%	8%	.	-10%	.
CCn1c(=O)cc(SCC(=O)N2CCN(C)CC2)c2ccccc21	5.0%	9%	-2%	5%	35%[activator]	3%[46.1 µM]	-6%	3%
O=C(COC(=O)c1ccc(Br)o1)NCCCc1ccccc1	-0.7%	8%	-114%	-7%	7%	2%	-2%	1%
CCOc1cc(CN2CCCC(N3CCc4ccccc4C3)C2)ccc1O (stereo not given)	.	.	5%	-1%	-1%	.	2%	.
COc1ccc(CCNC(=O)Cn2c(=O)n(-c3cc(OC)c(OC)c(OC)c3)c(=O)c3ccccc32)cc1OC	-0.5%	12%[46.1 µM]	.	.	-16%	?	.	-8%
Nc1nnnn1/N=C/c1ccccc1OCc1ccc(Cl)cc1Cl	14µM*	-25%	?	1%	-4%	?	-20%	16µM*
CCOc1cc(C#N)ccc1OCC(=O)N1CCc2ccccc2C1	.	.	-8%	1%	12%	.	-5%	.

In the list so far, four contain an NH in an aromatic ring.
SMILES	Cruzain inh Det	Lassa entry inh	NS1 function inh	SARS PLpro yeast	2A StopGo	MARV entry inh	RE007 growth inh	Cruzain inh noDet
COC(=O)C1CSc2[nH]c(=O)sc2C1c1ccc(O)c(OC)c1 (stereo not given)	2.0%	-13%	11%	-4%	-4%	0%	-8%	-1%
CCCc1cc(=O)[nH]c(Nc2cc(Cl)ccc2OC)n1	-5.8%	14%[46.1 µM]	.	.	-7%	-1%[46.1 µM]	.	?
Cc1cccc(N(Cc2cc(=O)[nH]c3ccccc23)C(=O)CCl)c1	.	.	2%	1%	20µM*	.	-20%	.
Cc1ccc(C)c2[nH]c(=O)c(C(c3nnnn3Cc3ccco3)N3CCc4ccccc4C3)cc12 (stereo not given)	-17%	?	?	7%	?	?	-11%	?

Further records
SMILES	Cruzain inh Det	Lassa entry inh	NS1 function inh	SARS PLpro yeast	2A StopGo	MARV entry inh	RE007 growth inh	Cruzain inh noDet
CN(C)c1ccc(C2C=C(c3ccc(Cl)cc3OC(F)F)Nc3ncnn32)cc1 (stereo not given)	-9.9%	14µM*	-54%	-8%	-22%	?	5%	-11%
CCOc1ccc(-c2c(C)nn3c(C)c(C(=O)NCCc4ccc(C)cc4)cnc23)cc1OCC	-2.1%	?	.	.	?	.	.	-1%
C=CCc1c(C)nc(SCC(N)=O)[nH]c1=O	3.5%	-2%	5%	0%	-7%	22%	-11%	-1%
Cc1nnc(SCC(=O)N2CCC(C(=O)Nc3nccs3)CC2)n1Cc1ccccc1	0.8%	3%	4%	16%	-15%	-15%&-15%	6%	3%
COCCNC(=O)CSc1nnc(CCCN2C(=O)c3cccc4cccc(c34)C2=O)n1-c1ccccc1	-7.8%	-20%	-1%	2%	-11%	3%	-4%	?

One compound at a time (already shown). Order of screens: Cruzain inh Det	Lassa entry inh	NS1 function inh	SARS PLpro yeast	2A StopGo	MARV entry inh	RE007 growth inh	Cruzain inh noDet
C=CCc1c(C)nc(SCC(N)=O)[nH]c1=O across the screens: 3.5%	-2%	5%	0%	-7%	22%	-11%	-1%
COCCNC(=O)CSc1nnc(CCCN2C(=O)c3cccc4cccc(c34)C2=O)n1-c1ccccc1 across the screens: -7.8%	-20%	-1%	2%	-11%	3%	-4%	?
CN(C)c1ccc(C2C=C(c3ccc(Cl)cc3OC(F)F)Nc3ncnn32)cc1 (stereo not given) across the screens: -9.9%	14µM*	-54%	-8%	-22%	?	5%	-11%
